# Ecoli growth – E. coli growth inhibition; OD600 absorbance (no concentration beside the values); AID 1053175; actives 0.21% (n = 330,000); Escherichia coli growth, OD600, 23 h; hits give low values;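 active = OD600 absorbance below the run mean of sample wells minus 3.6 SD, in any replicate, cut at about 0.56 in these data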;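 also: stock transfer was 300 nL into about 60 µL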
# FGF22 binding – shifts melting point of recombinant human FGF22 | Q9HCT0 | recombinant FGF22 thermal shift, SYPRO orange fluorescence; percent of sucrose octasulfate shift, DMSO zero | calls only at 9.99 µM | actives 1.5% (n = 340,000) | AID 651658;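 active = melting point raised past a set limit in the mean and every replicate; inconclusive = no clear call; three in four hits are not shown here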
# Target sequence (Q9HCT0 whole entry, looked up): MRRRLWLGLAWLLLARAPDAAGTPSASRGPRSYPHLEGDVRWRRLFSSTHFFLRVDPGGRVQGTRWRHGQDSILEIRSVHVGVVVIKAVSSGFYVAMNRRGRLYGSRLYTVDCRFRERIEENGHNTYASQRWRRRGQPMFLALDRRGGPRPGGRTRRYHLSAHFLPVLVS
# HNF4A DNA FP – change in binding of human HNF4 alpha to DNA. HNF4a-FITC DNA binding, fluorescence polarization, 1 h. activity change, % at 10 µM. actives 0.3% (n = 360,000); in the data active = activity change above about 30%, passing the limit was not always enough;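 also: controls were the assay level and a saturating level of protein; the project sought stronger binding though the title names inhibitors; some compounds called inactive have numbers as strong as hits; positive values seem to mean higher polarization but the record does not say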
# Beta2AR agonist – agonists of human beta-2 adrenergic receptor inducing internalization; response, % (concentration not given with the values); actives 0.43% (n = 340,000); Am2.2-beta2AR cells, FAP receptor internalization, flow cytometry; reference of the scale not given here; P07550;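 active = response above a set limit, near 3 SD of response in nonfluorescent compounds, cut at about 42% in these data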;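 also: stock transfer was 100 nL into about 11 µL; a reference agonist was the positive control; negative values mostly stem from fluorescent compounds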
# Target sequence (P07550 whole entry, looked up): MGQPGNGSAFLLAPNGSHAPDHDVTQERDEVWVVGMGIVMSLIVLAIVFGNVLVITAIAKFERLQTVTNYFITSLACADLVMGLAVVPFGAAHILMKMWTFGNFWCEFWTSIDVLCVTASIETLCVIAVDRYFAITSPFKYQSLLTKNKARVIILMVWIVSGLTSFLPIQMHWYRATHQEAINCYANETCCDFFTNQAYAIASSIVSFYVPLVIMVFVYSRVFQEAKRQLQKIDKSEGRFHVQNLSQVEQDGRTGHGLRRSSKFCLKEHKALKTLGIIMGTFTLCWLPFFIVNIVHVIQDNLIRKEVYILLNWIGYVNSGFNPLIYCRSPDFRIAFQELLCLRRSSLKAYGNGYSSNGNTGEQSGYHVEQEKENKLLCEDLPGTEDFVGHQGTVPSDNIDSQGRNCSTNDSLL
# ALR inh – inhibitors of human sulfhydryl oxidase ALR; actives 3.8% (n = 290,000); purified ALR, DTT oxidation, H2O2 HRP-luminol luminescence; AID 485317; inhibition, % (no concentration beside the values);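 active = mean and each replicate at 75% or more; inconclusive = only one of the two met; inactive = neither met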;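 also: stock transfer was 7.5 nL into about 7.5 µL; 0% = neutral wells and 100% = wells with inactivated enzyme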
# Target sequence (P55789 whole entry, looked up): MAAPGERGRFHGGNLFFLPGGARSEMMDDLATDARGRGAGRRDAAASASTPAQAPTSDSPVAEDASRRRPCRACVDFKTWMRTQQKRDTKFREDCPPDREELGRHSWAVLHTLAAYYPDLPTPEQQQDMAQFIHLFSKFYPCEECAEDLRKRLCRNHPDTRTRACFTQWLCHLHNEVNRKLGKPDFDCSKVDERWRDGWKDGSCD
# LANA-H2A inh – blocks KSHV LANA binding to histone H2A/H2B. inhibition, % (no concentration beside the values). actives 0.6% (n = 320,000). cell-free LANA-H2A/H2B peptide, fluorescence polarization. Q9QR71; in the data active = inhibition mostly above about 10%, no sharp cut-off; inactive = mostly below about 6.7%;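 also: stock transfer was 7.5 nL into about 10 µL; 0% = median of vehicle wells and 100% = median of positive control wells; one replicate is shown; the record names a cut of 25% in any replicate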
# UCH37 inh – blocks the human deubiquitinase UCH37; purified proteasome/UCH37, Ub-AMC cleavage fluorescence; inhibition, % (test concentration not listed); Q9Y5K5; actives 0.33% (n = 330,000);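 active = mean of two replicates above 20%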;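 also: 0% = compound-free wells with enzyme and 100% = wells lacking proteasome; stock transfer was 100 nL into about 20 µL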
#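 System: Proteasome-associated human UCH37 deubiquitinase; Input: 0.15 nM proteasome in added enzyme buffer; Also added: Ub-AMC substrate from 1 µM stock; Incubation: 30 min compound-proteasome preincubation then 25 min substrate reaction, room temperature; Detection: fluorescence, ex 355 nm, em 460 nm; Read-out: % inhibition of Ub-AMC cleavage fluorescence; Benchmarks: no-proteasome and no-compound wells.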
# The depositor's hits bear a star; i = inactive; ? = inconclusive; · = not tested or not shown. Some of the compounds tested, so the mix of outcomes need not match the whole.
# The first two entries as a preview:
SMILES,Ecoli growth,FGF22 binding,HNF4A DNA FP,Beta2AR agonist,ALR inh,LANA-H2A inh,UCH37 inh
Cc1ccc(C)c(NC(=O)c2cc([N+](=O)[O-])cc([N+](=O)[O-])c2)c1,0.707,i,-1.9,-12.6,-27.1,-2.6,-1.2
Cn1c(-c2ccc(Br)cc2)cnc1NCc1ccc(C#N)cc1,0.608,i,0.4,13.8,33.4,-0.5,4.2

# The whole of this part (from the top)
SMILES,Ecoli growth,FGF22 binding,HNF4A DNA FP,Beta2AR agonist,ALR inh,LANA-H2A inh,UCH37 inh
Cc1ccc(C)c(NC(=O)c2cc([N+](=O)[O-])cc([N+](=O)[O-])c2)c1,0.707,i,-1.9,-12.6,-27.1,-2.6,-1.2
Cn1c(-c2ccc(Br)cc2)cnc1NCc1ccc(C#N)cc1,0.608,i,0.4,13.8,33.4,-0.5,4.2
Cc1nnc(NCc2cccc(Cl)c2)c2ccccc12,0.628,i,3.5,-5.2,2.1,5.2,5.4
Cc1nnsc1C(=O)Nc1cccc(Cl)c1C,0.703,i,11.1,-5.0,-1.5,0.1,5.8
Cc1cccc(N2CCN(S(=O)(=O)c3ccc4c(c3)CCCN4C(=O)C3CCC3)CC2)c1C,0.717,i,2.2,-7.5,-1.4,-1.6,4.9
NC(=S)N/N=C1\CC(c2ccc3c(c2)OCCO3)Oc2ccc(F)cc21 (stereo unspecified),·,i,2.4,-11.8,-2.1,-0.7,·
COc1ccc(C(=O)CCC(=O)N2CCN(c3ccc(N4CCOCC4)nn3)CC2)cc1,0.732,i,-2.1,9.2,30.5,-3.3,-107.0
Clc1ccc(-n2cnnn2)cc1,0.64,·,0.2,0.1,-1.1,0.6,2.7
COc1ccc(C2=Nc3nc(-c4ccccc4)cn3C(c3ccc(OC)cc3)C2)cc1 (stereo unspecified),0.733,i,3.4,0.6,·,·,-15.3
CCOc1ccc(N(C(=O)c2snc(C(N)=O)c2N)C(C(=O)NC2CCCC2)c2ccncc2)cc1 (stereo unspecified),0.693,i,1.2,6.4,-6.3,-2.0,-31.5
O=C(c1cccc(S(=O)(=O)N2CCCCC2)c1)N1CCN(c2ccccc2)CC1,0.708,i,0.3,3.6,28.2,-21.1,2.5
COC(=O)C1=C(N)Oc2cc(C)[nH]c(=O)c2C1c1cccnc1 (stereo unspecified),0.697,·,-0.6,-2.1,6.0,1.7,-2.3
CCOC(=O)Cc1csc(NC(=S)NC(=O)c2cccc([N+](=O)[O-])c2)n1,0.672,i,3.8,-1.9,·,2.8,2.3
CC(C)Cn1c(C23CC4CC(CC(C4)C2)C3)n[nH]c1=S,0.661,i,-2.9,2.2,·,0.7,2.8
CN(Cc1ccccc1)C(=O)COC(=O)C1CCN(S(=O)(=O)c2cccs2)CC1,0.633,i,0.4,-6.0,-5.6,-4.6,0.9
COc1ccc(N2C(=O)CC(NC3CCCCNC3=O)C2=O)cc1 (stereo unspecified),0.692,·,0.5,8.2,-10.9,-5.1,-0.2
Cc1ccc(-c2nnc(COC(=O)c3cccs3)o2)cc1,0.69,i,-0.2,2.2,-4.1,4.2,-0.5
O=C(O)C1CN(C(=O)c2ccccc2)c2cc(Cl)ccc2O1 (stereo unspecified),0.676,i,-4.3,-0.3,·,0.2,4.3
COc1cccc(Nc2nc(-c3cccnc3)cs2)c1,0.635,i,-4.3,14.0,4.0,-1.4,2.8
CN(C)c1ccc(-c2nc3cc(N)ccc3o2)cc1,0.698,i,-1.3,18.1,98.7*,-4.4,-440.6
Cn1c(-c2ccccc2)cnc1NCc1cc(Cl)ccc1O,0.565,i,-0.3,-2.1,?,-5.5,-0.6
C=CCn1c(SCc2cc(=O)n3cc(C)ccc3n2)nnc1-c1ccc(F)cc1,0.649,·,-0.5,-21.0,-6.7,-5.1,-5.0
Nc1nonc1-n1nnc(C(=O)N/N=C/c2c(Cl)cccc2Cl)c1CN1CCOCC1,·,·,-1.2,5.8,·,0.1,·
CC(C)(C)n1nnnc1C(c1cccc(C#N)c1)N1CCCCCC1 (stereo unspecified),0.664,·,1.2,2.2,-4.1,1.1,19.1
Nc1nc2nc(-c3ccc(Cl)cc3)cc(C(F)(F)F)n2n1,0.664,i,10.2,-5.2,-6.7,0.8,i
CC(=O)Oc1ccc2c(=O)c(N3C(=O)c4ccccc4C3=O)c(C)oc2c1C,0.674,i,4.2,5.0,1.5,2.5,3.5
COc1ccc(NC(=O)NS(=O)(=O)c2ccc(C)cc2)cc1OC,0.658,i,2.1,-1.0,·,-0.2,0.6
CCCCn1c(SCC(=O)N2CCCC2)nc2cc(S(N)(=O)=O)ccc21,0.691,i,-3.9,4.8,34.1,-2.3,1.9
COc1ccccc1CNC(=O)C(CCSC)NS(=O)(=O)c1ccc2c(c1)oc(=O)n2C (stereo unspecified),0.722,·,0.0,-12.4,·,0.6,1.1
CSc1cccc(NC(=O)c2ccccc2N(C)S(C)(=O)=O)c1,0.672,·,1.3,4.7,18.6,0.4,1.1
COc1ccc(C(=O)Oc2cccc(Nc3ncnc4ccccc34)c2)cc1OC,0.725,·,1.4,-15.5,-4.9,1.3,-22.5
Cc1ccccc1OCCN1CCCC1,0.706,i,0.8,-5.0,-20.7,-1.3,3.3
CCOC(=O)c1sc(C)c2c1NC1(CCCCC1)NC2=O,0.657,i,2.0,-5.5,-21.4,-2.9,-132.2
Cc1ccc(C(=O)OC/C(O)=C(\C#N)c2nc3ccccc3[nH]2)cc1S(=O)(=O)N1CCOCC1,0.701,·,7.8,-2.1,·,·,-0.6
CCN1CCCC1CNC(=O)CN1C(=O)COc2ccc(C)cc21 (stereo unspecified),0.736,i,-0.7,4.6,·,11.3,8.0
C#Cc1ccc([C@@H]2C=C(C(=O)O)O[C@H](OCCCCO)C2)cc1,·,i,-1.5,3.2,·,2.0,5.3
c1ccc(COc2cccc(CNCc3ccccn3)c2)cc1,0.628,i,2.6,-7.5,-5.9,1.4,1.1
COCCNC(=O)Cn1cc(C(=O)c2ccco2)c2ccccc21,0.728,i,0.2,-4.1,-11.3,-0.2,12.5
CC(=O)c1ccc(NC(=O)COc2ccc3c(c2)OCO3)cc1,0.61,·,1.3,-1.4,-1.4,-3.0,2.4
COc1ccc(S(=O)(=O)Nc2cccc3c2O[C@H](CN(C)S(=O)(=O)c2ccc(OC)cc2)[C@@H](C)CN([C@H](C)CO)C3=O)cc1,0.719,i,1.3,-1.3,·,-1.8,3.1
COc1ccc(-n2nc(C(=O)Nc3nc4ccc(OC)cc4s3)c3ccccc3c2=O)cc1,·,i,-0.6,23.8,1.5,5.5,·
COc1ccccc1Sc1nc(-c2ccccn2)ncc1OC,0.716,i,-3.5,-5.7,40.7,-1.1,4.8
CCOc1ccc(N(CC(=O)O)S(=O)(=O)c2cccnc2)cc1,0.764,i,0.4,4.2,-7.0,-4.4,2.7
COC(=O)c1cc2c(ccn2-c2ccc(F)cc2)n1CC(=O)N1CCN(C(=O)c2ccco2)CC1,0.739,·,-1.2,1.3,31.3,-8.1,-5.8
CC(C)c1ccc(C(=O)NC(=S)Nc2ccc3[nH]c(=O)[nH]c3c2)cc1,0.693,i,1.5,1.6,-2.1,0.7,6.1
Cc1nnc(NC(=O)/C=C/c2ccco2)s1,0.658,·,-3.9,-6.3,-11.6,0.8,9.9
CCN(C(=O)CN1C(=O)NC(c2ccccc2)(c2ccccc2)C1=O)c1ccccc1,0.718,i,-1.1,-1.4,-1.4,2.7,-0.9
CCCOP(=O)(c1ccc(N(C)C)cc1)C(O)c1ccc(N(C)C)cc1 (stereo unspecified),0.61,i,1.4,-5.6,·,2.1,19.0
O=C(NCc1ccccc1)N[C@@H](Cc1c[nH]c2ccccc12)C(=O)O,0.7,·,0.8,-1.4,·,4.6,0.2
O=C(O)Cc1c(-c2ccccc2)c2cc(Cl)ccc2[nH]c1=O,0.621,i,4.1,1.1,-0.7,-0.7,-12.1
# The listing continues:
SMILES,Ecoli growth,FGF22 binding,HNF4A DNA FP,Beta2AR agonist,ALR inh,LANA-H2A inh,UCH37 inh
O=C(CCCN1C(=O)S/C(=C\c2ccccc2)C1=O)NNC(=O)c1ccccc1O,·,i,0.0,-2.8,-1.7,-10.0,·
CC1=C(C(=O)OC(C)C)C(c2cccnc2)n2ncnc2N1 (stereo unspecified),0.8,i,0.6,5.8,2.2,0.0,-0.2
N#CCc1ccc(OC(=O)c2cccnc2Cl)cc1,0.68,i,6.5,-1.8,-7.5,-5.4,3.3
Cc1ccc(S(=O)(=O)CC(=O)Nc2cccc(C)n2)cc1,0.707,i,1.2,1.9,-0.1,0.6,4.2
Nc1cc(=O)nc(SCC(=O)Nc2ccccc2)n1-c1ccccc1,0.63,i,-1.3,-5.2,1.7,-1.4,-0.2
O=C(CCCc1ccccc1)NC1CCSC1=O (stereo unspecified),0.667,·,-2.7,2.8,5.3,3.3,1.6
COCc1c(C(=O)OCc2c(C)noc2C)oc2ccccc12,0.685,i,-0.3,0.2,3.0,0.6,4.4
O=C(C1CCCN(Cc2cccc(F)c2)C1)N1CCCCC1 (stereo unspecified),0.66,·,-0.3,-1.7,-11.0,6.1,3.0
O=C(NCc1ccccc1)c1sc(=S)n2c1[nH]c(=O)c1ccccc12,0.72,·,4.4,8.9,98.4*,3.0,10.9
Cc1c(C(=O)NCCN2C(=O)S/C(=C\c3cccs3)C2=O)cccc1[N+](=O)[O-],0.696,i,-0.2,-5.4,-0.1,-2.2,3.9
O=C1CCNCCN1[C@H](CO)c1ccccc1,·,i,-1.4,9.7,9.6,1.7,0.9
Cc1ccc(NC(=O)C(=O)c2ccc(C)cc2)cc1,0.662,i,-3.5,-1.6,-2.0,-0.2,4.6
CCC1(C)CC(c2csc(N)n2)CCO1 (stereo unspecified),0.701,·,4.0,12.8,10.3,0.3,1.2
COc1ccc(OC)c(NC(=O)c2ccc(NS(=O)(=O)c3c(C)noc3C)cc2)c1,0.715,·,2.2,5.6,-10.6,-2.2,3.1
CCN(C(=O)CSc1nnc(-c2cccs2)n1CC)C1CCS(=O)(=O)C1 (stereo unspecified),0.667,i,-1.1,-5.5,-8.6,-27.5,1.7
N#CC(=Cc1ccc(O)cc1)C(N)=C(C#N)C#N,0.683,i,7.6,-2.8,38.9,2.7,7.4
CCCn1nnnc1NCc1ccc(N(C)C)cc1,0.655,i,2.3,-1.2,36.5,-4.9,2.4
CCCN(C(=O)Cn1ncc2c([nH]c3ccccc32)c1=O)c1ccccc1C,0.666,i,-0.3,0.6,-5.0,0.0,0.1
O=c1cc(CSc2nnc3ccccn23)c2c(ccc3ccccc32)o1,0.694,·,-1.0,-5.7,-1.8,3.6,-7.7
CCN(CC)c1ncnc2c1nnn2C,0.716,i,3.0,2.1,·,·,2.2
CSCC[C@H](NC(=O)N1CCn2c1nc1ccccc12)C(=O)NC1CC1,0.678,i,-0.7,-5.3,?,-0.8,1.9
CC(=O)Nc1sc2c(c1CN1CCCC1)CCCC2,0.666,i,0.0,11.6,·,-1.7,3.2
COC(=O)Cn1c(C)nc(=O)c(-c2ccccc2)c1C,0.649,·,-1.4,8.7,2.9,14.7*,2.9
O=c1c2ccccc2c(C=Nc2ccc(S(=O)(=O)Nc3ncccn3)cc2)c(O)n1-c1cccc(Cl)c1,0.76,i,·,·,-3.2,3.7,-57.6
CCCSc1nnc2nc(C)cc(C)n12,0.725,i,5.1,-18.1,-7.3,6.7,4.8
CC1CCN(CCNC(=S)Nc2ccc(Cl)cc2)CC1,0.621,i,-1.0,-3.2,-5.9,3.2,4.9
CCN(C(=O)CCN1C(=O)S/C(=C\c2ccccc2)C1=O)C1CCS(=O)(=O)C1 (stereo unspecified),0.648,i,0.7,-3.1,-2.6,6.0,7.9
CN(CC(=O)O)Cc1nc2ccccc2[nH]1,0.66,·,5.0,1.4,-24.8,4.8,0.1
CC(=O)c1ccc(NC(=O)Cn2cnc(S(=O)(=O)N3CCCC3)c2)cc1,0.708,·,-1.4,-7.6,-0.4,·,-0.6
CCOC(=O)C1CCCN(Cc2ccc3c(c2)OCO3)C1 (stereo unspecified),0.61,·,-4.1,1.6,-4.9,0.6,1.8

# Screening results from PubChem.
